YopH inh = blocks Yersinia enterocolitica YopH tyrosine phosphatase; hit rate 0.16% among 140,000; inhibition, %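 (about 10 µM by stock and volumes)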; fluorescence Ex485/Em525;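 active means inhibition of 50% or more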;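 further: controls were vehicle for no effect and minimum signal wells for full effect; inactives centre near -20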
Mtb bLac sens = beta-lactam sensitization of Mtb H37Rv | M. tuberculosis H37Rv growth with meropenem, percent inhibition; hits of this screen are not shown here | hit rate 0.27% among 330,000 | inhibition, % at 25 µM;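 active means about 74% or more and at least 40 points above the plate without the antibiotic, then above 30% in a dose series; inconclusive means first-round hits that could not be retested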;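 further: growth measured after seven days incubation then overnight dye step; 0% = bacteria only wells and 100% = bacteria with antibiotic; twin plates without the antibiotic show which effects depend on it; some results filed as inactive read as strong as hits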
Mtb H37Rv = M. tuberculosis H37Rv growth inhibitors, H37Rv strain (AID 1626) | M. tuberculosis H37Rv growth inhibition; higher % means a stronger effect | hit rate 0.95% among 220,000 | inhibition, % at 10 µM; hits with a dose series show IC50 in µM;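 active means confirmed in a dose series; inconclusive means inhibition above 80% but not taken into the dose series; inactive means below 80% or under 30% at every dose of the series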;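 further: bacteria incubated seven days before Alamar blue readout; 0% = bacteria only wells and 100% = bacteria with antibiotic wells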
Arbovirus inh = arbovirus infection inhibition; arbovirus infection cell-based antiviral screen; inhibition, % at 10 µM; hit rate 0.37% among 200,000;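 active means inhibition from about 30%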;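 further: bluetongue infection of BSR cells; cell survival read as ATP light after 72 h; 0% = infected wells without compound and 100% = uninfected wells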
RecA splice inh = inhibitors of M. tuberculosis RecA intein splicing; P9WHJ3; cell-free RecA intein splicing, fluorescence; inhibition, %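 (about 9 µM by stock and volumes)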; hit rate 0.75% among 290,000; in the data active means inhibition above about 30%; inconclusive means no clear call, values can overlap the other calls;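 further: 0% = vehicle wells and 100% = reference inhibitor control wells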
Target sequence (P9WHJ3 whole entry, looked up, canonical isoform): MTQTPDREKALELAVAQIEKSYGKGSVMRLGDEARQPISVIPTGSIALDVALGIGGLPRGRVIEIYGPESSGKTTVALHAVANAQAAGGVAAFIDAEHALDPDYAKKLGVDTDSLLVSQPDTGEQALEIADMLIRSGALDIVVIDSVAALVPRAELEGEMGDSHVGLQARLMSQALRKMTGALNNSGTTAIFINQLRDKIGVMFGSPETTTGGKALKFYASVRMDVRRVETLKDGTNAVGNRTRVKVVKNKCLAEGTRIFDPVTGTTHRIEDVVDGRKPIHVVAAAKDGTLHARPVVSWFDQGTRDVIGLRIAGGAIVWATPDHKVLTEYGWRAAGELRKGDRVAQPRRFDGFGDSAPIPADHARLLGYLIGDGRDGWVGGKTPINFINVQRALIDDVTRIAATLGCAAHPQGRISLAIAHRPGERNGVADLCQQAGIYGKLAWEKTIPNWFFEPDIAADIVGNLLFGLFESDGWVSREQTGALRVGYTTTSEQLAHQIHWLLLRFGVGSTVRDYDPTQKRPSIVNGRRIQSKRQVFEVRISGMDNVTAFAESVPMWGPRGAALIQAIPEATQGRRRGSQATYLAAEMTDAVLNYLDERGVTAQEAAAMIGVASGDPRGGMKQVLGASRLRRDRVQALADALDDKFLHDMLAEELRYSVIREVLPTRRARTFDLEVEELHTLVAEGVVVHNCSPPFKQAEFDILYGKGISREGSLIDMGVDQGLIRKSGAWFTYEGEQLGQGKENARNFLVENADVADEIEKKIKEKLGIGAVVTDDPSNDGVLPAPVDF
Arbovirus inh repeat = second read-out of Arbovirus inh, no call of its own (marks repeat the call); inhibition, %; measured here: 10K subset replicate screen; many hits read low in the repeat;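 first of two repeat runs on a subset; 0% = infected and 100% = uninfected wells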
Numbers without * were called inactive; ? = inconclusive; . = not tested or not shown. The list is partial; the hit share may differ from the screen's.

SMILES | YopH inh | Mtb bLac sens | Mtb H37Rv | Arbovirus inh | RecA splice inh | others
Cc1ccc2[nH]c3c(NCCN4CCOCC4)ncnc3c2c1 | -30 | . | . | -1 | -0.9
COC(=O)c1ccccc1NC(=O)N1CCc2ccc(NC(=O)c3ccccn3)cc2C1 | . | 8 | . | . | 3.6
CN1CCCC(n2nc(Cc3ccc(Cl)cc3)c3ccccc3c2=O)CC1 (stereo not drawn) | . | -9 | 2% | . | 6.4
CCn1c2ccccc2c(=O)c2ccccc21 | . | -4 | 24% | 4 | -273
O=C(Nc1nc2ccsc2c(=O)s1)c1ccc(F)cc1Cl | . | 2 | -5% | . | -3.2
COc1ccc(C(=O)NCC(=O)OCC(=O)Nc2ccc(C)c(S(=O)(=O)N(C)C)c2)cc1OC | . | -6 | 0% | . | -1.6
CN(C(=O)c1cccc(C(=O)N(C)c2ccccc2)c1)c1ccccc1 | . | -2 | . | . | 0.1
FC(F)(F)c1ccc2c(c1)N(CCCN1CCN(CCCl)CC1)c1ccccc1S2 | -53 | -1 | 2% | -43 | 63*
CC(C)[C@H](NC(=O)c1ccco1)C(=O)OCC(=O)NC12CC3CC(CC(C3)C1)C2 | . | 4 | -1% | -3 | 1.5
O=C(CN1c2cccc3cccc(c23)S1(=O)=O)Nc1cccc(S(=O)(=O)N2CCOCC2)c1 | -26 | -4 | 1% | -7 | -3.5
CCOC(=O)C1CCN(Cc2nc3ccccc3c(=O)n2-c2ccc(OCC)cc2)CC1 | -6 | . | -7% | 3 | 5.4
Cc1cc(C)cc(OCC(=O)Nc2ccccc2C(=O)N2CCOCC2)c1 | . | -4 | . | . | -0.1
O=C(Nc1ccc2ccccc2c1)c1ccc2[nH]c(=O)c(=O)[nH]c2c1 | . | -4 | . | . | 2.1
COC(=O)c1ccc(OC(=O)c2ccccc2F)cc1 | -31 | 9 | -1% | 0 | 2.8
COc1ccnc(N=CNOCc2ccc(F)cc2Cl)c1C#N | -24 | -10 | 5% | 5 | -1.8
Cn1nc(-c2ccc(OCC(=O)Nc3cccnc3)cc2)c2ccccc2c1=O | 25 | 2 | 1% | 1 | -3.0
CN1CCN(/N=C/c2nc(-c3cccc([N+](=O)[O-])c3)n3ccccc23)CC1 | -16 | 6 | -4% | 11 | 0.3
Cc1ccc(C(=O)CSc2nnc(-c3ccco3)n2CC2CCCO2)cc1 (stereo not drawn) | -56 | -7 | -11% | 7 | 0.2
O=C(C1CCCN(S(=O)(=O)c2cccc3nonc23)C1)N1CCC(Cc2ccccc2)CC1 (stereo not drawn) | -8 | 3 | 6% | -3 | 7.4
Cc1sc2ncnc(SC(C)C(=O)N3c4ccccc4Sc4ccccc43)c2c1C (stereo not drawn) | -20 | 4 | -8% | -4 | 0.2
O=C(NNC(=O)c1cnccn1)c1ccc(Cl)cc1 | . | 88 | ? | . | .
Nc1nonc1-n1nnc(C(=O)N/N=C/c2ccc3c(c2)OCO3)c1CSc1ccccc1 | . | -4 | . | . | -4.7
CC1CC(CN)CC(CO)C1 (stereo not drawn) | . | -3 | -6% | -4 | -2.3
COc1ccccc1NC(=O)c1ccccc1NS(=O)(=O)N1CCCC1 | -49 | 5 | -4% | -5 | 3.9
CC12CN(C(=O)c3ccccc3)C3(C#N)CC1CCC23C (stereo not drawn) | -5 | -5 | 6% | 12 | 1.3
Cc1csc2ncc(C(=O)NCCc3ccccc3)c(=O)n12 | -53 | -6 | 0% | -1 | 1.4
O=C(N/N=C/c1ccc(Br)s1)c1ccccn1 | -20 | 83 | 14% | -4 | -0.8
CCCCn1c(SCc2cc(=O)[nH]c3ccccc23)nc2c1c(=O)n(C)c(=O)n2C | -29 | . | -1% | 1 | 0.6
CCN(CC(=O)Nc1c(F)cccc1F)C(=O)C1CCN(c2ncnc3sc(C)c(C)c23)CC1 | . | -8 | . | . | 2.3
O=C(NCc1ccccc1Cl)c1cc([N+](=O)[O-])ccc1Cl | . | -5 | -3% | 0 | -0.4
CCC(C)n1c(/C=C/c2ccccc2)nc2ccccc21 (stereo not drawn) | -9 | 86 | 13% | 8 | -0.5
CCc1nc(SCC(=O)NCc2ccco2)c2c(=O)n(C)c(=O)n(C)c2n1 | -28 | 0 | 1% | -9 | 0.3
Cc1ccc(C(=O)Nc2ccccc2N2CCCCC2)cc1[N+](=O)[O-] | . | 1 | 24% | 6 | 6.3
COCCn1c(SCC(=O)Nc2ccc(OC)cc2)nc2c(oc3ccccc32)c1=O | . | 5 | 6% | -6 | .
COc1ccc(OC)c(S(=O)(=O)NCc2cn3c(C)csc3n2)c1 | -36 | -7 | 2% | -2 | 0.1 | Arbovirus inh repeat=6
O=C(OC1CCCCC1)c1ccc(NC(=O)C2CCCCC2)cc1 | 3 | 89 | 59% | 1 | 1.8
N#C/C(=C/c1cccn1-c1cccc(C(=O)O)c1)c1ccc(F)cc1 | . | . | -7% | 0 | 45*
O=C(Nc1ccc(Cl)cc1)c1csc(-c2ccccc2)n1 | -37 | -3 | 3% | 13 | 1.4
CCOC(=O)c1nn(-c2ccccc2)c(=O)cc1SC1CCCCC1 | . | 0 | 9% | 3 | 2.7
COC(=O)c1ccc(CN2CCC(CO)(Cc3ccc(OC)cc3)CC2)cc1 | . | -2 | -3% | 1 | -0.1

Reprinted at random: 2 records from the list
SMILES | YopH inh | Mtb bLac sens | Mtb H37Rv | Arbovirus inh | RecA splice inh | others
CCOC(=O)c1nn(-c2ccccc2)c(=O)cc1SC1CCCCC1 | . | 0 | 9% | 3 | 2.7
Cc1ccc(C(=O)Nc2ccccc2N2CCCCC2)cc1[N+](=O)[O-] | . | 1 | 24% | 6 | 6.3

The results go on.
SMILES | YopH inh | Mtb bLac sens | Mtb H37Rv | Arbovirus inh | RecA splice inh | others
O=C(Nc1c(C(=O)N2CCC(N3CCCCC3)CC2)oc2ccccc12)c1c(F)cccc1F | . | 5 | . | . | 1.9
Cc1sc(NC(=O)CSc2nnnn2C(C)C)c(C#N)c1C | . | 9 | . | . | -0.6
Cc1ccc(S(=O)(=O)CCC(=O)Nc2nnc(CC(C)C)s2)cc1 | . | 23 | . | . | 0.6
Nc1nonc1-n1nnc(C(=O)N/N=C/c2ccncc2)c1CSc1ccccc1 | . | -9 | . | . | 0.8
COc1ccc2ccc3c(c2c1)N=CC1(O3)N(C)c2ccccc2C1(C)C (stereo not drawn) | -86 | 3 | -2% | 8 | 76*
O=c1ccn(CCc2c[nH]c3ccccc23)c2c1CCCC2 | . | 5 | 11% | 7 | -4.8
Cc1sc2nc(CN(C(=O)NCc3ccccc3)C3CCCC3)[nH]c(=O)c2c1C | . | 21 | . | . | -1.2
COc1ccc(S(=O)(=O)CC(O)CN2CCCC2=O)cc1 (stereo not drawn) | 10 | 2 | 1% | 4 | -0.3
CCOC(=O)c1c(O)cc(C)cc1Nc1ccccc1 | . | 9 | . | . | -2.3
COc1ccc2[nH]c(=O)c(CN(C(=O)c3cccnc3)c3cc(C)ccc3C)cc2c1 | . | 3 | -4% | . | -1.3
COc1ccc(-c2nc(C#N)c(NCCc3ccccc3)o2)cc1OC | -18 | -4 | 4% | -8 | 4.8
CCCNC(=O)C1CC(c2ccccc2C(F)(F)F)=NO1 (stereo not drawn) | . | 11 | . | . | -0.5
COc1ccc(CCC(=O)NCCS(=O)(=O)N2CCN(c3ccccc3OC)CC2)cc1 | . | -7 | . | . | 1.0
COc1cc(S(=O)(=O)N(Cc2ccco2)C2CCCC2)ccc1-n1cnnn1 | -17 | 0 | -7% | 6 | 4.0
COc1cc(-c2n[nH]c(=S)n2C(C)c2ccccc2)cc(OC)c1OC (stereo not drawn) | . | 2 | . | . | 0.7
CC(C)c1ccc(NC2CCCN(C(=O)c3ccccc3-c3ncc[nH]3)C2)cc1 (stereo not drawn) | . | -3 | . | . | 2.0
COc1ccc(-c2cc(C(F)(F)F)nc(SCC(=O)Nc3sc4c(c3C#N)CCC4)n2)cc1 | -32 | . | 4% | -4 | 0.3
Cc1cccc(C2CC(c3ccccc3)Nc3nc(N)nn32)c1 (stereo not drawn) | -15 | 4 | -1% | -1 | -10 | Arbovirus inh repeat=2
O=C(NNC(=O)c1ccc(NC(=O)c2ccccc2)cc1)Nc1ccccc1 | . | 1 | -1% | -5 | -4.4
O=C(COc1ccccc1Cl)Nc1ccc2c(c1)OCCO2 | -42 | 11 | 6% | 0 | 2.3
Cn1c(O)c(C2=NN(C(=O)CCl)C(c3ccccc3)C2)c(=O)n(C)c1=O (stereo not drawn) | . | 42 | -4% | . | 45*
CCC1(c2ccc(F)cc2)NC(=O)N(CC(=O)NC2CC2)C1=O (stereo not drawn) | . | 0 | . | . | -1.2
O=C(NCC(=O)N(c1ccccc1)C(C(=O)NC1CCCC1)c1cccnc1)c1cccs1 (stereo not drawn) | -26 | 1 | 2% | -1 | -1.4
Cn1cc(Cl)c(C(=O)Nc2nc3ccccc3s2)n1 | -15 | 4 | -5% | 6 | 1.7
Cc1ccccc1CCN(C(=O)Cn1nnc2ccccc21)C(C(=O)NCC1CCCO1)c1nc2ccccc2n1C (stereo not drawn) | -20 | -5 | 5% | -18 | 0.7
COc1cc(C(C(=O)NC(C)(C)C)N(C(=O)CNC(=O)c2cccs2)c2ccc(C(C)C)cc2)cc(OC)c1OC (stereo not drawn) | -16 | . | -5% | -10 | .
C=CCN(C(=O)CNS(=O)(=O)c1ccccc1)C(C(=O)NCCOC)c1ccncc1 (stereo not drawn) | -6 | -7 | 3% | 7 | -1.0
CC(C)OCCCNC(=O)Cc1ccc(Br)cc1 | . | -4 | -5% | 5 | 1.8
CC(=O)c1sc(N)c(C(=O)OC(C)C)c1C | 9 | 7 | -6% | -8 | 1.6
Cc1ccc(S(=O)(=O)N2CCC(C(=O)NNC(=O)c3cccnc3)CC2)cc1 | . | 0 | -7% | 3 | 0.6
Cc1nc2ccc(S(=O)(=O)NCC(=O)N3CCN(c4ccccn4)CC3)cc2s1 | -44 | -11 | -2% | -5 | -1.1
Cc1ccc(S(=O)(=O)N2CCN(CC(=O)N/N=C\c3ccc(Cl)c([N+](=O)[O-])c3)CC2)cc1 | -22 | 4 | -1% | -31 | 0.5
COc1ccc(CCNC(=O)CSc2nc3ccccc3c3nc(CCN4CCCCC4)nn23)cc1OC | . | -16 | 3% | 5 | 0.9
CCCN1C2CCCC1CC(NC(=O)c1ccc(Br)cc1)C2 (stereo not drawn) | . | -5 | . | . | 0.3
CCOC(=O)c1c(S(=O)(=O)NCCc2ccco2)c(C)n(C)c1C | . | -6 | . | . | 5.0
Cc1oc(-c2cccc(Cl)c2)nc1CN1CCCC(C(=O)NCc2ccco2)C1 (stereo not drawn) | -20 | -1 | -1% | 3 | 0.3
CCOc1ccc(CNc2nnnn2C)cc1 | . | -1 | . | . | 5.7
CCc1ccc(C(=O)Nc2cc(C)ccc2F)s1 | . | -2 | 7% | -3 | -1.6
Clc1cc(/C=N\NC2=NCCN2)cc(Cl)n1 | . | 1 | . | . | -3.6
O=C(CS(=O)(=O)Cc1ccccc1)Nc1ccc(Cl)cn1 | 28 | 5 | -6% | -1 | 0.1

Grouped by structure: those above containing a cyano group
SMILES | YopH inh | Mtb bLac sens | Mtb H37Rv | Arbovirus inh | RecA splice inh | others
COc1ccnc(N=CNOCc2ccc(F)cc2Cl)c1C#N | -24 | -10 | 5% | 5 | -1.8
CC12CN(C(=O)c3ccccc3)C3(C#N)CC1CCC23C (stereo not drawn) | -5 | -5 | 6% | 12 | 1.3
N#C/C(=C/c1cccn1-c1cccc(C(=O)O)c1)c1ccc(F)cc1 | . | . | -7% | 0 | 45*
Cc1sc(NC(=O)CSc2nnnn2C(C)C)c(C#N)c1C | . | 9 | . | . | -0.6
COc1ccc(-c2nc(C#N)c(NCCc3ccccc3)o2)cc1OC | -18 | -4 | 4% | -8 | 4.8
COc1ccc(-c2cc(C(F)(F)F)nc(SCC(=O)Nc3sc4c(c3C#N)CCC4)n2)cc1 | -32 | . | 4% | -4 | 0.3

(cont.)
SMILES | YopH inh | Mtb bLac sens | Mtb H37Rv | Arbovirus inh | RecA splice inh | others
O=C(CSc1nc(=O)n2cc(Cl)ccc2n1)NCCc1ccccc1 | . | -4 | . | . | 0.7
COc1cc(OC)c(OC)cc1/C=C1\CC(C)C/C(=C\c2cc(OC)c(OC)cc2OC)C1=O (stereo not drawn) | . | 33 | . | . | 4.7
COc1ccc(C(OCC(O)CN(C)C2CCCCC2)c2ccc(OC)cc2)cc1 (stereo not drawn) | . | 66 | . | . | 5.5
CN(CC(=O)Nc1cccc(F)c1)CC(=O)Nc1ccc(Cl)cc1[N+](=O)[O-] | . | -1 | 8% | 10 | -2.5
Cc1c(N(C)C)nc2ccccc2c1N | -17 | -6 | 3% | 7 | 0.0

Compound activity deposited in PubChem BioAssay by several laboratories.
